LANA-H2A inh = blocks KSHV LANA binding to histone H2A/H2B; Q9QR71; cell-free LANA-H2A/H2B peptide, fluorescence polarization; inhibition, % (test concentration not listed); hit rate 0.6% among 320,000; AID 2629; in the data active = inhibition mostly above about 10%, no sharp cut-off; inactive = mostly below about 6.7%;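 note: stock transfer was 7.5 nL into about 10 µL; 0% = median of vehicle wells and 100% = median of positive control wells; one replicate is shown; the record names a cut of 25% in any replicate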
T cruzi repl = blocks replication of Trypanosoma cruzi | inhibition, % (concentration not given with the values) | hit rate 1.4% among 300,000 | T. cruzi beta-gal in NIH3T3, luminescence, 90 h;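 active = mean inhibition across valid replicates above about 55%, limit read from the data; inconclusive = mean below that limit but half or more replicates reach it; inactive = mean below it, under half of replicates reach it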;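 note: signal also drops with host cell toxicity which is not excluded here; 0% = plate median of DMSO wells and 100% = zero luminescence signal; higher percent means less beta-gal luminescence so fewer parasites; stock transfer was 50 nL into about 50 µL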
ALR inh = human ALR oxidase inhibition via reduced H2O2 | P55789 | purified ALR, DTT oxidation, H2O2 HRP-luminol luminescence | inhibition, % (no concentration beside the values) | hit rate 3.8% among 290,000;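 active = mean and each replicate at 75% or more; inconclusive = only one of the two met; inactive = neither met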;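 note: stock transfer was 7.5 nL into about 7.5 µL; 0% = neutral wells and 100% = wells with inactivated enzyme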
Target sequence (P55789 whole entry, looked up): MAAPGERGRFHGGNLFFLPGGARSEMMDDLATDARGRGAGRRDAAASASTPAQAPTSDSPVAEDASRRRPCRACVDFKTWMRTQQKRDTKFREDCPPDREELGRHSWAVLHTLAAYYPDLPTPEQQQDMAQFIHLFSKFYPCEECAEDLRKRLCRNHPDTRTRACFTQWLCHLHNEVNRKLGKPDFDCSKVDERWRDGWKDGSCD
Beta2AR agonist = activates human beta-2 adrenergic receptor causing internalization; P07550; hit rate 0.43% among 340,000; response, % (concentration not given with the values); Am2.2-beta2AR cells, FAP receptor internalization, flow cytometry; reference of the scale not given here;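 active = response above a set limit, near 3 SD of response in nonfluorescent compounds, cut at about 42% in these data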;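 note: stock transfer was 100 nL into about 11 µL; a reference agonist was the positive control; negative values mostly stem from fluorescent compounds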
Target sequence (P07550 whole entry, looked up): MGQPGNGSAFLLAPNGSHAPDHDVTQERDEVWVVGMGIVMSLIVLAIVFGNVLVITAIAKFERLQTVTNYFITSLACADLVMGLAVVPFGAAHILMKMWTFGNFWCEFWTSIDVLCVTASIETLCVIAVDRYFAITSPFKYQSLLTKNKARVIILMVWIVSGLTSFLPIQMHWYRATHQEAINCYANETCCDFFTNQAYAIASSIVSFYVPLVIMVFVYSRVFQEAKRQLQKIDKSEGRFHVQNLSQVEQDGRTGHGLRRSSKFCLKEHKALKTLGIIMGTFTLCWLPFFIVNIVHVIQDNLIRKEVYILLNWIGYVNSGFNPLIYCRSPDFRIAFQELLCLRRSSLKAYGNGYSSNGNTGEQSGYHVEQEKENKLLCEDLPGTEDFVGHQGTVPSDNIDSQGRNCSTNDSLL
A1 inh = inhibitors of the anti-apoptotic protein A1, read as caspase activation | MEF A1-2A-BIM cells, Caspase-Glo 3/7 luminescence, 3 h; percent of clofoctol response, vehicle zero | hit rate 0.066% among 330,000 | caspase activation, % (concentration not given with the values);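 active = over half of replicate activation scores above 10%, or exactly half above 10 with the replicate mean above 10; inconclusive = replicate mean below 10 yet half the replicates above 10; inactive = over half of replicates below 10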;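 note: wells of about 30 µL received 50 nL stock; many hits fall short of the cut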
Ecoli rRNA inh = inhibits bacterial ribosomal RNA function over humanized ribosomes; E. coli WT GFP vs humanized-ribosome RFP mutants, fluorescence, 24 h; active compounds read low; DMSO median 0, no signal -100; GFP signal change (wild-type ribosome), % (no concentration beside the values); hit rate 1.6% among 350,000; AID 720706;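 active = significant combined selectivity score with lowered wild-type GFP, culture density cut under 30%, mutant RFP and density less affected; inactive = any of these conditions unmet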; note: one replicate is shown; some compounds called inactive have numbers as strong as hits
Beta apoptosis = beta cell apoptosis inhibition. INS-1E cytokine-induced death, ATP luminescence, 48 h; percent of positive-control rescue, neutral wells zero. protection from apoptosis, % (test concentration not listed). hit rate 0.8% among 300,000. AID 435005;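 active = all replicates at 75% or more, or half of them and the mean; inconclusive = half reach 75% but not the mean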;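 note: 0% = cytokine-treated negative control wells and 100% = positive control rescue; higher means more ATP so stronger rescue from cytokine killing; wells of about 40 µL received 100 nL stock; the first replicate is given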
Calb FLC = C. albicans growth modulation with fluconazole | growth inhibition, % (concentration not given with the values) | AID 1979 | C. albicans CaCi-2 (fluconazole-resistant clinical isolate) + fluconazole, Alamar Blue growth, 48 h | hit rate 0.57% among 300,000;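 active = most replicates above 75%; inconclusive = exactly half above 75%; inactive = most below 75%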;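 note: all wells also contain fluconazole at 8 µg/ml as a sub-toxic cotreatment; 0% = median of DMSO wells and 100% = median of geldanamycin control wells; wells of about 8 µL received 7.5 nL stock; the first replicate is given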
Ecoli rRNA inh OD600 = further read-out of Ecoli rRNA inh, marked with its call; OD600 change, %; measured here: OD600 growth;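 optical density of the mix in the first replicate; 0 = DMSO median and -100 = no signal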
Ecoli rRNA inh RFP = second read-out of Ecoli rRNA inh, no call of its own (marks repeat the call); RFP signal change, %; measured here: RFP humanized mutant strains;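 first replicate; 0 = DMSO median and -100 = no signal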
* marks the source's active call; other numbers are inactive results; ? = inconclusive; / = no result given. The list is partial; count on the stated rates, not on these rows.

Start of the listing, in advance, eleven compounds:
SMILES	LANA-H2A inh	T cruzi repl	ALR inh	Beta2AR agonist	A1 inh	Ecoli rRNA inh	Ecoli rRNA inh OD600	Ecoli rRNA inh RFP	Beta apoptosis	Calb FLC
COc1ccc(C(=O)COC(=O)COc2cc(C)cc(C)c2)cc1	3.9	-3	-8	4	-0.5	9	11	-0.3	-3	-4
CC(C)NC(=O)COC(=O)c1cc(Br)ccc1Cl	-3.8	-38	-1	-7	0.2	0	3	-9.3	-1	3
CCCCCCC(=O)Nc1ccc(Br)cn1	0.9	17	-1	-5	0.7	-3	4	1.8	4	0
O=C(c1ccccc1)N1N=C(c2cccs2)CC1c1ccccc1O (stereo not drawn)	-4.4	11	3	3	-0.1	-21	-60	19	7	27
O=C(CSc1nnc(-c2cccc(S(=O)(=O)N3CCCCC3)c2)o1)NCCC1=CCCCC1	3.2	-13	/	8	0.0	/	/	/	3	-2
CCOC(=O)C(=CNc1ccc(S(N)(=O)=O)cc1)C(=O)OCC	3.7	-10	-7	-7	-0.2	-1	-12	-12	2	-2
COc1ccc(-c2c(-c3cc(OC)cc(OC)c3)n(C)c3ccc(-c4ccc5[nH]ccc5c4)cc23)cc1	4.5	/	-4	-6	-0.2	4	14	2.1	9	/
C=CCn1c(SCC(=O)NCc2ccco2)nc2sc(C)c(C)c2c1=O	0.2	27	-1	0	0.2	13	2	1.3	-5	0
c1ccc(-c2ccccc2OCCCCN2CCCCC2)cc1	4.4	15	-6	-1	-0.5	/	/	/	4	-2
CCc1nnc(NS(=O)(=O)c2ccc(NC(=O)c3cccc4ccccc34)cc2)s1	-2.0	-11	41	-2	0.2	-19*	-4.7*	-1.8*	-4	16
CCc1ccc(NC(=S)N2CCCC2)cc1	2.4	/	-24	2	-0.4	3	0	-0.8	5	-9

The list itself, from the first entry:
SMILES	LANA-H2A inh	T cruzi repl	ALR inh	Beta2AR agonist	A1 inh	Ecoli rRNA inh	Ecoli rRNA inh OD600	Ecoli rRNA inh RFP	Beta apoptosis	Calb FLC
COc1ccc(C(=O)COC(=O)COc2cc(C)cc(C)c2)cc1	3.9	-3	-8	4	-0.5	9	11	-0.3	-3	-4
CC(C)NC(=O)COC(=O)c1cc(Br)ccc1Cl	-3.8	-38	-1	-7	0.2	0	3	-9.3	-1	3
CCCCCCC(=O)Nc1ccc(Br)cn1	0.9	17	-1	-5	0.7	-3	4	1.8	4	0
O=C(c1ccccc1)N1N=C(c2cccs2)CC1c1ccccc1O (stereo not drawn)	-4.4	11	3	3	-0.1	-21	-60	19	7	27
O=C(CSc1nnc(-c2cccc(S(=O)(=O)N3CCCCC3)c2)o1)NCCC1=CCCCC1	3.2	-13	/	8	0.0	/	/	/	3	-2
CCOC(=O)C(=CNc1ccc(S(N)(=O)=O)cc1)C(=O)OCC	3.7	-10	-7	-7	-0.2	-1	-12	-12	2	-2
COc1ccc(-c2c(-c3cc(OC)cc(OC)c3)n(C)c3ccc(-c4ccc5[nH]ccc5c4)cc23)cc1	4.5	/	-4	-6	-0.2	4	14	2.1	9	/
C=CCn1c(SCC(=O)NCc2ccco2)nc2sc(C)c(C)c2c1=O	0.2	27	-1	0	0.2	13	2	1.3	-5	0
c1ccc(-c2ccccc2OCCCCN2CCCCC2)cc1	4.4	15	-6	-1	-0.5	/	/	/	4	-2
CCc1nnc(NS(=O)(=O)c2ccc(NC(=O)c3cccc4ccccc34)cc2)s1	-2.0	-11	41	-2	0.2	-19*	-4.7*	-1.8*	-4	16
CCc1ccc(NC(=S)N2CCCC2)cc1	2.4	/	-24	2	-0.4	3	0	-0.8	5	-9
Cc1ccc(N2CCN(/N=C/C3=C(N4CCOCC4)C(=C\c4ccccc4)/CC3)CC2)cc1	1.3	7	3	/	1.8	/	/	/	-5	-3
CCCC(C(=O)NC1CCCC1)N(CC1CCCO1)C(=O)CNS(=O)(=O)c1ccc(F)cc1 (stereo not drawn)	7.7	12	/	4	1.2	2	-1	1.6	-2	7
Cc1nnc(SCCn2c(Br)nc3c2c(=O)n(C)c(=O)n3C)s1	0.9	-2	-2	-3	0.0	/	/	/	-3	-10
Cc1ccc(C2=NN(CC(=O)NCc3ccco3)C(=O)CC2)cc1	3.9	-15	1	4	1.0	/	/	/	4	-3
COCCN1C(=O)C(=O)/C(=C(/O)c2cccc(OC)c2)C1c1ccco1 (stereo not drawn)	4.4	-4	-7	-2	0.7	/	/	/	-3	-4
CCCCOC(=O)C1=C(C)NC(=O)NC1c1ccccc1 (stereo not drawn)	0.1	0	0	-5	?	-1	-2	-2.0	3	1
CCCNC(=O)CCc1cc(C(C)(C)C)c(O)c(C(C)(C)C)c1	-2.6	-5	38	-7	1.0	3	-5	-1.2	-7	-1
CCCNCC1COc2ccccc2O1 (stereo not drawn)	-4.9	-12	-4	/	-0.1	/	/	/	3	2
O=C(c1cc(-c2ccc(Cl)cc2)n(-c2cc(Cl)ccc2Cl)n1)N1CCOCC1	1.7	37	-11	62*	-0.2	/	/	/	7	22
Brc1cccc(CNc2nc3ccccc3n2CCN2CCCCC2)c1	-1.6	38	/	-4	0.5	-34	-37	23	19	8
CC(C(=O)Nc1ccc2c(c1)OCCO2)N(c1ccccc1)S(C)(=O)=O (stereo not drawn)	-0.6	3	-4	-3	0.5	1	2	-0.6	-3	-1
Clc1ccc(/C=N/c2c(-c3ccc(Cl)cc3)nc3n2CCS3)cc1	0.4	8	-10	-4	-0.8	/	/	/	-5	-4
COc1ccc(N(CC(=O)Nc2nccs2)S(=O)(=O)c2c(C)nn(C)c2C)cc1	3.1	/	-9	0	0.3	0	5	1.1	5	/
CN(C)c1ccc(C(=O)C(O)c2ccccc2)cc1 (stereo not drawn)	2.3	-6	57	5	1.4	/	/	/	-11	4
Cc1cc(C)nc(-n2ncc3c2CC(c2ccccc2)CC3=O)n1 (stereo not drawn)	-2.5	7	3	2	-0.4	6	-2	-1.0	1	35
CCOC(=O)N1CCN(C(=O)C2CC(=O)N(c3ccccc3)C2)CC1 (stereo not drawn)	-2.4	-1	0	-7	2.0	12	9	3.1	-6	3
CCOc1nc(NCc2ccco2)nc(Nc2ccc(OC)cc2)n1	-3.6	17	19	0	-0.9	/	/	/	3	/
CCC(C)c1ccccc1NC(=O)C(C)NCCN(C)C (stereo not drawn)	3.9	3	-2	10	0.3	14	3	-3.9	-10	5
Cc1cc(NC(=O)c2c(-c3ccccc3Cl)noc2C)no1	1.5	-4	-5	-12	-0.5	10	1	2.8	8	24
O=C(Nc1ccc(N2CCN(C(=O)c3cccs3)CC2)c(Cl)c1)c1cccnc1	-0.2	0	1	22	1.1	-23	-21	8.6	3	0
O=C(NCCc1ccc(Cl)cc1)Nc1ccc(Cl)cc1	2.7	31	3	-2	-0.6	-6	5	2.2	-8	-12
COc1ccc(OC)c(NC(=O)C23CC4CC(C2)CC(n2cnc(Br)n2)(C4)C3)c1	-4.4	20	-30	0	0.5	/	/	/	3	4
Cc1ccc(C(=O)OCC(=O)N(CCc2ccccc2)Cc2ccccc2)cc1S(=O)(=O)N1CCOCC1	1.4	18	-1	16	0.5	5	2	2.7	4	8
CCCc1[nH]nc2c1C(c1ccncc1)C(C#N)=C(N)O2 (stereo not drawn)	0.8	/	/	-2	1.0	/	/	/	/	-8
Cc1cnc(C(=O)OCC(=O)N(C)CC(=O)Nc2ccccc2Cl)cn1	2.1	-13	6	/	-0.3	16	8	0.8	-1	1
Cn1c(=O)c2c(nc(NCc3cccnc3)n2Cc2cccc(C(F)(F)F)c2)n(C)c1=O	2.9	40	22	-1	-0.4	/	/	/	8	-5
CCCC(=O)NCc1nc2ccccc2n1C	0.5	-17	-2	3	-0.1	/	/	/	7	-3
O=[N+]([O-])c1cccc2c(Cl)ccnc12	0.2	-12	-46	-1	0.8	-5	-2	2.9	3	66
COc1cccc(OC)c1OCc1cc(C2C3CCCC=C3C(C#N)=C(N)C2(C#N)C#N)c(C)cc1C (stereo not drawn)	-0.1	17	-4	18	-1.1	/	/	/	-8	12
COc1ccc(-c2sc3ccccc3c2C#CCCO)cc1	-4.4	9	2	14	-0.4	-55	-72	-23	0	-2
COc1cc(C2C3C(=O)N(c4ccccc4)C(=O)C3ON2c2ccccc2)ccc1O (stereo not drawn)	0.7	-6	15	-2	-0.3	/	/	/	-2	?
CCOC(=O)c1c(N)sc(C(O)(C(F)(F)F)C(F)(F)F)c1-c1ccccc1	1.5	10	/	7	-0.4	/	/	/	-1	20
Cc1cccc(NC(=S)N(CCN(C)C)Cc2cccs2)c1	3.8	-1	/	-12	2.0	1	2	-0.4	-3	0
CCC(NC(=O)Cc1cccs1)c1ccccc1 (stereo not drawn)	4.1	-8	-18	6	0.7	-5	-2	-4.1	4	2
Clc1ccc(OCCCCCN2CCOCC2)cc1	-1.5	16	-1	7	0.0	1	6	0.2	-3	-1
O=C(CN1C(=O)C2CCCCC2C1=O)N1CCN(c2ncccn2)CC1 (stereo not drawn)	0.2	0	-2	-1	-0.2	1	3	-3.6	-5	2
COc1ccc(CNCCSc2nnnn2C)c(OC)c1OC	1.0	-15	0	-6	0.0	7	4	0.9	3	10
CC1(C)CC(CC(=O)O)(c2ccc(F)cc2)CCO1 (stereo not drawn)	-0.9	-4	/	7	-0.1	11	13	2.9	-1	0
CN=C1NN=C(c2cc(C)n(-c3c(C)n(C)n(-c4ccccc4)c3=O)c2C)CS1	3.8	-6	44	0	-0.2	15	16	0.3	-1	-7
Cc1nc(C)c(CCNC(=O)c2ccc(C(F)(F)F)cc2)s1	0.1	-9	-3	0	0.7	/	/	/	0	17
Cc1cnc(NC(=O)c2cc(S(=O)(=O)N(C)C)ccc2N2CCCC2)s1	-0.5	/	4	/	1.1	12	9	0.0	-35	/
Clc1cccc(Cl)c1CSc1nnc(CN2CCOCC2)n1-c1ccccc1	3.5	-2	1	1	0.4	/	/	/	-1	-17
O=C(Nc1cccc(Cl)c1)OCCOc1ccccc1	7.6	-7	-7	7	-0.1	-23	-37	-2.6	2	5

High-throughput results from PubChem BioAssay.
